# Screens from PubChem.
# Cruzain inh noDet: cruzain (T. cruzi) inhibition without detergent; P25779; purified cruzain, Z-FR-AMC fluorescence, no detergent; Potency, µM, for the others: max response, negative = inhibition, usual class: inhibitors; 200,000 tested, 2.3% active; AID 1476; active means well fitted curve in the direction sought with a large enough effect; inconclusive means small, poorly fitted or top-dose-only effect, or another doubt; inactive means no such curve, though single readings can be large; an effect the other way counts as inactive or inconclusive;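 further: plate controls were enzyme without inhibitor for no effect and buffer without enzyme for full effect; nearly all actives have a fitted effect of over 40% in size; top concentration of the series not given in the record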
# Target sequence (P25779 123-467 limits assumed): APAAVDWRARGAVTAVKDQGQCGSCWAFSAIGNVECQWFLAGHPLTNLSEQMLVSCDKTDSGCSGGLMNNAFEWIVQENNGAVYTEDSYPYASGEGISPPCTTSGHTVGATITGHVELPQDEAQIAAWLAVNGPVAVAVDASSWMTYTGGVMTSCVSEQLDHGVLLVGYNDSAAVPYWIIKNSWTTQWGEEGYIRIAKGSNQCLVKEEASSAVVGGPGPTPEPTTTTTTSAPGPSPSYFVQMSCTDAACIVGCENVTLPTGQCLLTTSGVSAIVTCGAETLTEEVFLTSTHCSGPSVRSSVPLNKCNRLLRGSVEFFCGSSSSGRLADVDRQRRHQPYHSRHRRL
#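 Detergent-free condition (0.00005% Triton X-100) in acetate buffer pH 5.5 with DTT. 1.5 nM enzyme and compound were pre-mixed 15 min, then 2 uM Z-FR-AMC substrate added; reaction progress from fluorescence change between first and third reads (60 s).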
# RE007 growth inh: less growth of the S. pombe RE007 Vpr strain | Potency, µM (doses to about 92.2 µM), for inactives: top-dose activity change, negative = less growth | S. pombe RE007 Vpr strain, BacTiter-Glo ATP luminescence, 24 h; control for the full effect not named in the record | 360,000 tested, 0.21% active; active = well fitted falling curve with a large enough effect; inconclusive = small, poorly fitted or top-dose-only effect; inactive = no such curve, though single readings can be large or run the other way;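 further: on the % scale 0 is the no-effect control and ±100 the full control effect; nearly all actives have a fitted effect of over 50% in size; the assay follows cell death caused by Vpr and the record does not say whether a fall means rescue or toxicity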
#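 Fission yeast RE007 carrying one integrated HIV-1 vpr copy, seeded at OD 0.01 in PMG+AL medium with 23 nL pinned compound. Grown 24 h at 30 degrees; viability read by BacTiter-Glo luminescence after 5 min.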
# Lassa entry inh: blocks Lassa virus binding to or entry into cells. 300,000 tested, 1.2% active. Lassa virus pseudotype entry inhibition, cell reporter; control for the full effect not named in the record. Potency, µM (highest dose often 37.9 µM), inactives show top-dose activity change, negative = inhibition, most hits filed as inhibitors; active means well fitted inhibition curve with a large enough effect; inconclusive means small, poorly fitted or top-dose-only effect, or effect the other way; inactive means flat fitted curve, though single readings scatter; tested in HEK293 cells; further: on the % scale 0 is the no-effect control and ±100 the full control effect; nearly all actives have a fitted effect of over 50% in size; luciferase read-out
# 2A StopGo: FMDV 2A StopGo reporter, luciferase signal. human cells with a luciferase reporter of 2A StopGo recoding; control for the full effect not named in the record. Potency, µM (top dose mostly 57.9 µM), inactives show top-dose signal change, negative = less light. 410,000 tested, 1.2% active; active = well fitted falling curve with a large enough effect; inconclusive = small, poorly fitted or top-dose-only effect; inactive = no such curve, though single readings can be large or run the other way; tested in HEK293T cells; further: on the % scale 0 is the no-effect control and ±100 the full control effect; nearly all actives have a fitted effect of over 45% in size; luciferase light after 4 h
# Cruzain Triton: inhibitors of Trypanosoma cruzi cruzain with detergent | purified cruzain, Z-FR-AMC fluorescence, 0.01% Triton | Potency, µM, without a hit: max response, negative = inhibition, most hits filed as inhibitors | 200,000 tested, 0.43% active | AID 1478; active means well fitted curve in the direction sought with a large enough effect; inconclusive means small, poorly fitted or top-dose-only effect, or another doubt; inactive means no such curve, though single readings can be large; an effect the other way counts as inactive or inconclusive;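 further: plate controls were neutral wells for no effect and buffer without enzyme for full effect; nearly all actives have a fitted effect of over 40% in size; top concentration of the series not given in the record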
#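 Read-out: AMC fluorescence (360 nm excitation, 450 nm emission), four reads over 2 min, first-to-third difference used. Conditions: cruzain 1.5 nM, Z-FR-AMC 2 uM, pH 5.5 acetate, 5 mM DTT, 0.01% Triton X-100.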
# NS1 inh: blocks influenza NS1 protein function; AID 2326; 270,000 tested, 0.4% active; S. cerevisiae slowed by influenza A NS1, growth recovery by OD600; Potency, µM (titrated, usually from 46.1 µM), inactives show at the highest dose activity, positive = more growth; further: actives are rising curves; nearly all actives have a fitted effect of over 50% in size
#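 A cell-based growth assay was used: compounds that relieve NS1-induced slow growth of budding yeast raise OD600. Assay medium was yeast nitrogen base with ammonium sulphate and -URA supplement, pH 6.0, with 2% galactose.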
# SARS PLpro yeast: SARS-CoV PLP inhibition in yeast; S. cerevisiae expressing SARS-CoV PLpro, growth rescue; control for the full effect not named in the record; Potency, µM (titrated, usually from 32.9 µM), for inactives: top-dose activity, positive = growth rescue; AID 485353; 330,000 tested, 0.19% active; further: 0% is about no effect; nearly all actives have a fitted effect of over 55% in size; growth read by luminescence after 48 h
# MARV entry inh: blocks Marburg virus binding to or entry into cells; Marburg virus pseudotyped entry inhibition, cell reporter; control for the full effect not named in the record; about a third of the inactives were read at about 46 µM; 300,000 tested, 1.8% active; Potency, µM (top dose mostly 37.8 µM), for the others: top-dose activity change, negative = inhibition, actives largely listed as inhibitors; active = well fitted inhibition curve with a large enough effect; inconclusive = small, poorly fitted or top-dose-only effect, or effect the other way; inactive = flat fitted curve, though single readings scatter; tested in HEK293 cells; about a fifth of its hits are not listed in these tables; further: on the % scale 0 is the no-effect control and ±100 the full control effect; luciferase read-out
# Numbers without * were called inactive; ? = inconclusive; · = not tested or not shown; [ ] = remark or other dose. Unless noted, the call rests on the fitted dose curve; in most records, active means well fitted rising curve with a large enough effect; inconclusive means small, poorly fitted or top-dose-only effect; inactive means no such curve, though single readings can be large or run the other way. Potency means the concentration at half of the fitted maximal effect.
SMILES,Cruzain inh noDet,RE007 growth inh,Lassa entry inh,2A StopGo,Cruzain Triton,NS1 inh,SARS PLpro yeast,MARV entry inh
O=C(COc1ccccc1)NCCS(=O)(=O)N1CCN(c2ccccc2)CC1,·,-15%,4%,-23%,·,·,0%,17%
CCCc1cc(=O)[nH]c(SCC(=O)N2CCOCC2)n1,·,10%,12%,-19%,·,-3%,1%,-6%[46.1 µM]
Cc1ccc(NC2=CC(=O)CC(C)(C)C2)c(N)c1,8%,2%,23%,-25%,-2.5%,?,1%,8%
Nc1cc(-c2ccc(Cl)cc2)nn1S(=O)(=O)c1ccc(Cl)cc1,-7%,-5%,·,-19%,-6.1%,6%,11%,·
COc1ccc(N(C)C(=O)c2onc3c2CCCC3)cc1,2%,-4%,13%,27%,0.4%,-4%,1%,-17%
CCOc1ccccc1NC(=O)Cc1coc2ccc(C)cc12,·,-1%,-13%[46.1 µM],-11%,·,-32%,-2%,-6%[46.1 µM]
CCCCC(=O)N=c1sc2cc(S(C)(=O)=O)ccc2n1C,0%,-2%,-3%,25%,2.0%,-9%,-7%,20%
COc1ccccc1CN1CCN(C(=O)c2ccncc2)CC1,-9%,27%,7%,1%,3.3%,4%,0%,25%
c1cc2c(nn1)CCc1nonc1-2,-7%,-2%,1%,0%,0.5%,-4%,0%,-4%
CC1CCN(c2ccc([N+](=O)[O-])cc2C(=O)N2CCOCC2)CC1,·,10%,-2%,-14%,·,8%,0%,7%
CCn1c(SC(C)C(=O)NCC2CCCO2)nc2ccccc21 (stereo not given),·,13%,5%,24%,·,·,-16%,?
COc1cc(C(=O)Nc2c(C(=O)N3CCOCC3)oc3ccccc23)cc(OC)c1OC,·,-7%,·,-27%,·,-10%,-8%,·
O=C(Nc1ccc(N2CCN(C(=O)c3cccs3)CC2)c(Cl)c1)c1ccco1,7%,8%,-26%,-73%,-3.6%,-14%,-3%,?
COc1ccccc1-c1nnc(SCC(=O)O)n1-c1ccc(C)cc1,·,18%,-2%,-16%,·,3%,-1%,12%[46.1 µM]
O=C(COc1ccccc1)NCCc1cnc[nH]1,·,38%,-1%,-3%,·,4%,1%,?
CN(Cc1ccco1)C(=O)c1ccc(CNS(=O)(=O)c2ccc3c(c2)C(C)(C)C(=O)N3C)cc1,·,-9%,·,-3%,·,0%,6%,·
S=C(NCCC1=CCCCC1)NCc1ccco1,·,0%,?,33%[activator],·,-2%,-1%,-27%[46.1 µM]
Fc1ccc(OCc2nnc(SCCN3CCOCC3)o2)cc1,8%,-8%,-1%,0%,-0.6%,-2%,0%,?
Cc1cc(C(=O)OCC(=O)Nc2ccccc2C(F)(F)F)on1,·,-5%,20%,-5%,·,·,-4%,4%
CCOc1ccc(CCN2CN(C3CCCCC3)CNC2=S)cc1OCC,·,-10%,?,77%[activator],·,1%,-1%,25%
Cn1cc(Br)c(C(=O)NNC(=O)Cc2ccc(Cl)cc2)n1,·,-17%,5%,1%,·,13%,1%,?
Cc1ccc(CNC(=O)c2c[nH]n3c(=O)c(Cc4ccc(F)cc4Cl)c(C)nc23)cc1,-14%,·,0%[46.1 µM],-12%,-15%,·,·,-2%[46.1 µM]
O=C(NNC(=O)c1ccc([N+](=O)[O-])cc1)c1ccncc1,-2%,-2%,19%,-9%,-2.7%,3%,6%,?
Cc1ccc(C(=O)N2CCC(C)CC2)cc1NC(=O)c1nsc2ccccc12,-8%,·,-9%[46.1 µM],-13%,-4.4%,·,·,·

# Laid out differently: entries from further up.
smiles	Cruzain inh noDet	RE007 growth inh	Lassa entry inh	2A StopGo	Cruzain Triton	NS1 inh	SARS PLpro yeast	MARV entry inh
S=C(NCCC1=CCCCC1)NCc1ccco1	·	0%	?	33%[activator]	·	-2%	-1%	-27%[46.1 µM]
Fc1ccc(OCc2nnc(SCCN3CCOCC3)o2)cc1	8%	-8%	-1%	0%	-0.6%	-2%	0%	?
Cc1cc(C(=O)OCC(=O)Nc2ccccc2C(F)(F)F)on1	·	-5%	20%	-5%	·	·	-4%	4%

# Additional results follow.
SMILES,Cruzain inh noDet,RE007 growth inh,Lassa entry inh,2A StopGo,Cruzain Triton,NS1 inh,SARS PLpro yeast,MARV entry inh
N/C(=N\OC(=O)c1cccc(F)c1)c1ccccc1,7%,-28%,24%,40%[activator],-0.7%,-4%,1%,3%
COc1ccc(S(=O)(=O)N2CCN(Cc3ccc(OC)c(OC)c3)CC2)cc1,·,7%,-24%,?,·,-14%,-4%,?
Cc1cc(Cl)c(OCCCSc2nc(C)cc(=O)[nH]2)c(Br)c1,1%,12%,12%,-2%,-12%,-4%,-6%,3%
COc1ccc(CCNc2cc(C)nc3c(-c4ccccc4OC)cnn23)cc1OC,·,8%,-8%[46.1 µM],-1%,·,-6%,-2%,11µM*
CCCCCCn1nc(C(=O)N(CCOC)c2c(N)n(CCCC)c(=O)[nH]c2=O)c2ccccc2c1=O,·,2%,0%,-3%,·,·,6%,?
O=C(O)c1cccc(Nc2ccc3nonc3c2[N+](=O)[O-])c1,·,-2%,·,-11%,·,14%,5%,·
COc1ccc(CN2CCN(Cc3cccc4nonc34)CC2CCO)c(C)c1C (stereo not given),·,-10%,-3%,-2%,·,-1%,0%,?
CCC1(C)NC(=O)N(CC(=O)Nc2sc3c(c2C(=O)OC)CCCCC3)C1=O (stereo not given),10%,9%,-18%,-21%,-6.0%,3%,0%,-4%[46.1 µM]
O=C(NCCCSc1ccccc1)c1cc(Br)ccc1O,·,?,·,-19%,·,14%,1%,·
COCCNC(=O)CSc1nc2ccccc2c(=O)n1CCC(=O)NCCc1ccc(OC)c(OC)c1,·,-3%,?,11%,·,·,-2%,-6%[46.1 µM]
Cn1c(=O)c2c(-c3ccccc3)n3c(c2n(C)c1=O)C(c1ccc([N+](=O)[O-])cc1)Nc1ccccc1-3 (stereo not given),-5%,·,-24%[46.1 µM],-29%,-3.7%,·,·,?
CCOC(=O)c1sc(NC(=O)c2ccccc2)cc1C,-7%,-24%,?,36%[activator],-1.7%,-71%,-23%,?

# Pulled by compound from the list above (two):
SMILES,Cruzain inh noDet,RE007 growth inh,Lassa entry inh,2A StopGo,Cruzain Triton,NS1 inh,SARS PLpro yeast,MARV entry inh
N/C(=N\OC(=O)c1cccc(F)c1)c1ccccc1,7%,-28%,24%,40%[activator],-0.7%,-4%,1%,3%
COc1ccc(CN2CCN(Cc3cccc4nonc34)CC2CCO)c(C)c1C (stereo not given),·,-10%,-3%,-2%,·,-1%,0%,?

# Next section.
SMILES,Cruzain inh noDet,RE007 growth inh,Lassa entry inh,2A StopGo,Cruzain Triton,NS1 inh,SARS PLpro yeast,MARV entry inh
CCCCCCOc1ccc(/C(N)=N/O)cc1,9%,17%,10%,37%[activator],-5.2%,-50%,2%,-5%
Cc1ccc(OCCC(=O)Nc2ccc(F)c(F)c2)cc1,-7%,-13%,9%,-2%,-6.3%,-39%,-28%,?
CCCCN(CCCC)C(=O)c1cc2c(=O)n3cccc(C)c3nc2s1,18%,·,8%[46.1 µM],-3%,-6.9%,·,·,?
Cc1nn(C)c(C(=O)NNC(=S)NC2CCCCC2)c1Br,·,20%,·,72%[activator],·,-3%,0%,·
O=C1CC(=O)N(c2cccc(Br)c2)C(=O)N1,·,9%,-24%[46.1 µM],-6%,·,?,6%,-17%[46.1 µM]
NC(=O)c1ccccc1NC(=O)CS(=O)(=O)Cc1ccccc1,-4%,-2%,27%,-13%,4.3%,3%,6%,-7%
CC(C)OC(=O)/C(=C/c1ccco1)c1ccccc1,·,-15%,19%,-14%,·,-4%,0%,-20%[14.2 µM]
COc1cc(OC)c2c(-c3ccccc3)cc(=O)oc2c1C(CCN1CCCCC1)c1ccc2c(c1)OCO2 (stereo not given),·,-11%,·,26%,·,2%,0%,·
CC(C)Cn1c(N)c(C(=O)CSc2ccc3c(c2)OCCO3)c(=O)n(C)c1=O,-1%,17%,?,11µM*,18%,-1%,-5%,?
Cc1ccc(-n2c(SCC(=O)Nc3ccc(N4CCOCC4)cc3)nc3ccccc3c2=O)cc1,?,9%,-8%,2%,-5.0%,2%,-13%,?
COc1cccc(NC(=O)CSc2nc3ccsc3c(=O)n2-c2ccc(C(=O)O)cc2)c1,·,3%,·,-8%,·,·,1%,2%[46.1 µM]
O=C(COC(=O)CCSc1ccc(Cl)cc1)NCc1ccco1,·,1%,28%,13%,·,5%,0%,21%[46.1 µM]

# Results in 2A StopGo, for 4 of the compounds above:
canonical_smiles,2A StopGo
CC(C)Cn1c(N)c(C(=O)CSc2ccc3c(c2)OCCO3)c(=O)n(C)c1=O,11µM*
Cc1ccc(-n2c(SCC(=O)Nc3ccc(N4CCOCC4)cc3)nc3ccccc3c2=O)cc1,2%
COc1cccc(NC(=O)CSc2nc3ccsc3c(=O)n2-c2ccc(C(=O)O)cc2)c1,-8%
O=C(COC(=O)CCSc1ccc(Cl)cc1)NCc1ccco1,13%

# Next section.
SMILES,Cruzain inh noDet,RE007 growth inh,Lassa entry inh,2A StopGo,Cruzain Triton,NS1 inh,SARS PLpro yeast,MARV entry inh
CC(C)(C)c1ccc(C(=O)Nc2ccc(Cl)cc2C(=O)c2ccccc2)cc1,-14%,·,-21%[46.1 µM],-14%,-2.2%,·,·,·
S=c1[nH]cnc2sc(Nc3ccccc3)nc12,·,3%,·,27%,·,5%,2%,·
COc1ccc(NS(=O)(=O)c2ccc3nc(COc4ccc5ccccc5c4)[nH]c3c2)cc1,?,17%,?,?,5.3%,10%,25%,?
Cc1cc(O)c2c(CN3CCN(Cc4ccccc4)CC3)cc(=O)oc2c1,·,12%,·,-18%,·,-4%,-1%,·
C=CCNC(=S)NN=C1CCCCCCC1,·,14%,1%[46.1 µM],12%,·,·,-1%,20%[46.1 µM]
